Screening results deposited in PubChem by ICCB-Longwood Screening Facility, Harvard Medical School.
Sa growth inh = S. aureus growth inhibition at 42 and 30 °C, primary screen, LtaS inhibitor project, RN4220, two temperatures; OD600, 20 h, 42 °C; hits give low values; relative growth, % (no concentration beside the values); 0.53% of 170,000 active;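 active = growth at 42 °C up to 50% and 20 or more points under that at 30 °C, or under 10% at both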;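 also: 300 nL library stock went into each well; scaled to the means of positive and negative controls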
HCMV UL50-53 inh = inhibitors of HCMV UL50-UL53 interaction, biochemical, HTRF. normalized percent inhibition. inhibition, % (no concentration beside the values). 0.15% of 190,000 active. AID 1918969, 2023;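 active = both replicates at 50% or more, plus weaker picks with an unusually low signal ratio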;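 also: stock transfer was 100 nL into about 20 µL; 0% = negative control wells and 100% = wells with untagged competitor protein; inactives centre near -12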
GIV Gai3 FP = inhibitors of GIV peptide binding to Galpha-i3, primary screen, biochemical, fluorescence polarization, FITC-GIV GBA peptide, rat Galphai3 | Guanine nucleotide-binding protein G(i) subunit alpha-3 (Rattus norvegicus), P08753 | 90 min; hits give low values; scaled: aluminum fluoride 0%, vehicle 100% | percent of control (FP), % (test concentration not listed) | 0.42% of 210,000 active | AID 1224905, 2016;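 active = replicate mean at 85% of control or lower, very high polarization wells dropped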;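 also: wells of about 15 µL received 100 nL stock; the first replicate is given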
Target sequence (P08753 whole entry, looked up): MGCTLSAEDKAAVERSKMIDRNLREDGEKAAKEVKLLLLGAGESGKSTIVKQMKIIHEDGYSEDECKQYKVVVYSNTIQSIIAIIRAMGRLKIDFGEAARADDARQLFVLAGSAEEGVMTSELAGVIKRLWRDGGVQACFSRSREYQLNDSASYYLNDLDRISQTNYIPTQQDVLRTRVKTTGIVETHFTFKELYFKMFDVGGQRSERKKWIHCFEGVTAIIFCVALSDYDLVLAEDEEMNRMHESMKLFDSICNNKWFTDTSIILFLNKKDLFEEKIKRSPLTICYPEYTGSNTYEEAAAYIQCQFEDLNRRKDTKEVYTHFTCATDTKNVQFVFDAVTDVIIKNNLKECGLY
Sa growth inh second temp = second read-out of Sa growth inh, no call of its own (marks repeat the call); relative growth, %; measured here: growth at 30 °C;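 optical density after 20 h as mean of two plates; 100% = untreated growth and lower means inhibition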
Active calls of the source: *; . = no result given.

Compound | Sa growth inh second temp | HCMV UL50-53 inh | GIV Gai3 FP | Sa growth inh
Cc1oc2nc[nH]c(=O)c2c1C(=O)OC(C(=O)N1CCCCC1)c1ccccc1 (stereo unspecified) | 92 | -21 | . | 95
O=c1[nH]c(-c2cccc(Oc3ccccc3)c2)nc2ccccc12 | 86 | -24 | 92 | 98
CCCCSc1nc2c(cnn2-c2ccc(F)cc2)c(=O)[nH]1 | . | -26 | 94 | .
Cc1cnn2c3c(cnc12)C(=O)c1ccccc1-3 | 84 | -130 | 110 | 90
COc1cc(C(=O)NC(=S)N2CCCCCC2)cc(OC)c1OC | 80 | -25 | 99 | 98
O=C(Nc1ccc2nc(-c3ccccc3)[nH]c2c1)c1ccco1 | 36 | 17 | 112 | 52
Nc1ccc(CCc2nc3ccccc3[nH]2)cc1 | 91 | . | 100 | 97
CC1(C)CC(=O)/C(=C/c2ccco2)CO1 | 80 | . | 95 | 97
CCOc1ccccc1C1CC(=O)Nc2c1c(C)nn2-c1nncc(-c2ccc(C)cc2)n1 (stereo unspecified) | . | -37 | 101 | .
COc1ccc(Cl)cc1S(=O)(=O)NCc1ccc2c(c1)CCN2C(=O)c1cccc(C)c1 | 106 | . | 111 | 118
COc1ccc(NC(=O)CS(=O)CC(=O)Nc2cccc(F)c2)cc1 (stereo unspecified) | 76 | -7 | 100 | 101
CCc1cccc(NC(=O)c2ccc(Cn3c(=O)[nH]c4ccsc4c3=O)cc2)c1 | 96 | 14 | 103 | 103
Cc1ccsc1/C=N/NC(=O)CN1CCSCC1 | 110 | -27 | 99 | 100
O=C(/C=C/c1ccco1)Nc1ccccc1F | 64 | -48 | 110 | 103
CCn1nc(C)c2c1c(=O)n(Cc1ccccc1)c(=O)n2Cc1ccccc1Cl | . | 6 | 101 | .
CCOC(=O)c1[nH]c(C)c(C(=O)N2CCCCC2)c1C | 88 | 2 | 105 | 94
CCc1ccccc1NC(=O)C1CCCN(S(=O)(=O)c2cccc3nsnc23)C1 (stereo unspecified) | 90 | -42 | 102 | 107
Cc1c(C(=O)NCCN(C)C)sc2nc3n(c(=O)c12)CCC3 | 90 | -14 | 101 | 111
O=C(O)CC(Nc1nc(-c2ccccc2)nc2ccccc12)C(=O)O (stereo unspecified) | . | -6 | 114 | .
Cc1ccc(Nc2c(-c3c[nH]c4ccccc34)nc3ccccn23)cc1 | 80 | 3 | 105 | 98
O=c1ccc(-c2ccc(S(=O)(=O)NCc3ccco3)o2)n[nH]1 | 91 | -96 | 106 | 94
CCOC(=O)c1ccc(NC(=O)CC2Nc3ccccc3NC2=O)cc1 (stereo unspecified) | 83 | -37 | 110 | 101
CC(=O)Nc1ccc(/C=N/O)cc1 | 65 | -19 | . | 71
N#CCCCSc1ncccc1C(=O)O | 88 | -26 | 103 | 91
CC(=O)Oc1c(Cl)cc(C(=O)O)cc1Cl | 97 | 14 | . | 83
COC(=O)CSc1nnc(-c2ccccc2)n1-c1ccccc1 | 98 | -31 | . | 70
Cc1ccc(CSc2ncnc3nc[nH]c23)cc1 | . | -3 | 103 | .
COc1cc([C@H]2N(c3nccs3)C(=O)[C@@H]3CCCN32)cc(OC)c1OC | . | -39 | 100 | .
CCC1=Nc2cc(C(=O)NCC(OC)OC)ccc2Sc2ccccc21 | 80 | . | 107 | 77
COc1cccc(NC(=O)C2CCCN(c3ncnc4onc(-c5ccc(F)cc5)c34)C2)c1 (stereo unspecified) | 93 | . | 110 | 94

Of the compounds above, 4 have an aryl thioether with sulfur outside any ring.
Compound | Sa growth inh second temp | HCMV UL50-53 inh | GIV Gai3 FP | Sa growth inh
CCCCSc1nc2c(cnn2-c2ccc(F)cc2)c(=O)[nH]1 | . | -26 | 94 | .
N#CCCCSc1ncccc1C(=O)O | 88 | -26 | 103 | 91
COC(=O)CSc1nnc(-c2ccccc2)n1-c1ccccc1 | 98 | -31 | . | 70
Cc1ccc(CSc2ncnc3nc[nH]c23)cc1 | . | -3 | 103 | .

More records:
Compound | Sa growth inh second temp | HCMV UL50-53 inh | GIV Gai3 FP | Sa growth inh
CC(C)Oc1ccc(C2N3CC4(C)CN2CC(C)(C3)C4O)cc1 (stereo unspecified) | . | 10 | 104 | .
CC1(C)CC(=O)C2=C(C1)NC1=C(C(=O)CC(C)(C)C1)C2c1cccc(F)c1 | 91 | -27 | . | 94
Cc1ccc(S(=O)(=O)NC(=O)Oc2cccc3cccnc23)cc1 | 0.6* | . | 107 | 0.2*
N#Cc1c(C(F)(F)F)cc(=O)[nH]c1SCC(=O)O | 87 | -20 | . | 76
COc1ccc(C(=O)Nc2ccccc2C(=O)NCCC(=O)O)cc1 | 111 | 15 | 99 | 82
COc1cc2nc(NCc3ccc(C)cc3)n3nc(-c4ccccc4)nc3c2cc1OC | 91 | -10 | 107 | 100
CCCCS(=O)CSc1nc(-c2cccs2)cc(-c2ccccc2)c1C#N (stereo unspecified) | 89 | . | 98 | 113
COc1ccc(CN(Cc2ccco2)c2cnc(S(C)(=O)=O)nc2C(=O)Nc2ccc(F)cc2)cc1 | 84 | -37 | 95 | 101
COC(=O)C1=C(Nc2ccccc2NC(=O)C(C)C)CSC1 | 91 | -8 | 104 | 112
O=S(=O)(Nc1ccccc1N1CCOCC1)c1cc(Cl)sc1Cl | 99 | -7 | 105 | 129
COc1ccc(CN2CCCN(CC(=O)Nc3ccc4c(c3)OCCO4)S2(=O)=O)cc1 | 86 | . | 101 | 100
CCC(C)NC(=O)C1CCC(CNS(=O)(=O)c2ccc(NC(C)=O)cc2)CC1 (stereo unspecified) | 80 | 2 | . | 94
N#CC1(NC(=O)CSc2nnc(-c3c[nH]c4ccccc34)o2)CCCCC1 | 66 | -28 | . | 65
CCOc1cc(C(C#N)N2CCCCC2)ccc1OC (stereo unspecified) | 82 | -17 | 100 | 89
COc1ccc(CNC(=O)C(OC(=O)c2cc3sccc3n2C(C)C)C(C)C)cc1 (stereo unspecified) | 81 | 1 | 101 | 118
Cc1cccc(NC(=O)N2CCN(Cc3nc(-c4ccccc4)oc3C)CC2)c1C | . | -24 | 102 | .
N#CC(C(=O)Nc1ccc(Cl)cc1)C(=O)c1cccs1 (stereo unspecified) | 69 | 0 | 111 | 79
CCOC(=O)c1ccc(NC(=O)CC2C(=O)N(c3cccc(C)c3)C(=O)N2CCOC)cc1 (stereo unspecified) | 84 | -25 | 96 | 97
COc1ccc(CNC(=O)CN(C)c2nn3c(=O)cc(C)nc3s2)cc1 | 87 | -22 | 100 | 99
COC(=O)c1ccc(Cn2cnc3c(cnn3-c3ccc(F)cc3)c2=O)o1 | 91 | -11 | 100 | 106
COc1cc(OC)cc(C(=O)NCC(c2ccc(N(C)C)cc2)N2CCc3ccccc32)c1 (stereo unspecified) | 99 | -13 | 108 | 99
N#Cc1ccc(Cn2c(=O)c(C#N)c3n(c2=O)CCC3)cc1 | 91 | -5 | . | 92
COc1cccc2c1NC(c1cccc(Br)c1)C1CC=CC21 (stereo unspecified) | . | -10 | 104 | .
CCC(Cn1nnc2ccccc2c1=O)NC(=O)Nc1ccc(C)cc1 (stereo unspecified) | 93 | 2 | 99 | 97
Cc1ccc(-c2c(Nc3ccc(F)cc3)c(=O)c2=O)cc1 | . | -13 | 103 | .
COc1cccc(CNC(=O)C(NS(=O)(=O)c2ccc3c(c2)oc(=O)n3C)C(C)C)c1 (stereo unspecified) | 92 | -38 | 96 | 98
O=C(Nc1ccc2c(c1)OCO2)c1ccc(N2C(=O)CCS2(=O)=O)cc1 | . | -20 | 106 | .
CCc1cccc(CC)c1NC(=O)c1c(C)oc2ccc(O)c(CN3CCOCC3)c12 | 85 | -7 | 100 | 104
Cc1cc(N2CCCC2)ccc1/C=C/C1=CCN(C)CC1 | 41 | 35 | 113 | 75
CCc1ccc(NC(=O)CS(=O)CC(=O)Nc2ccc(F)cc2F)cc1 (stereo unspecified) | 99 | -18 | 103 | 103

4 records drawn at random from those above, as already listed:
Compound | Sa growth inh second temp | HCMV UL50-53 inh | GIV Gai3 FP | Sa growth inh
O=C(Nc1ccc2c(c1)OCO2)c1ccc(N2C(=O)CCS2(=O)=O)cc1 | . | -20 | 106 | .
COC(=O)c1ccc(Cn2cnc3c(cnn3-c3ccc(F)cc3)c2=O)o1 | 91 | -11 | 100 | 106
COc1cccc(CNC(=O)C(NS(=O)(=O)c2ccc3c(c2)oc(=O)n3C)C(C)C)c1 (stereo unspecified) | 92 | -38 | 96 | 98
Cc1cccc(NC(=O)N2CCN(Cc3nc(-c4ccccc4)oc3C)CC2)c1C | . | -24 | 102 | .

(next part)
Compound | Sa growth inh second temp | HCMV UL50-53 inh | GIV Gai3 FP | Sa growth inh
O=c1c2ccccc2[nH]c(=S)n1CCc1ccccc1 | 93 | 24 | 105 | 111
COc1ccc(OC)c(CNC(=O)c2ccc(N3Cc4ccccc4Oc4ncccc43)s2)c1 | 95 | . | 108 | 110
CC1CCCN(C(=S)NCc2ccccc2)C1 (stereo unspecified) | 89 | 2 | . | 112
COc1ccc(-c2nc3n(c2C(N)=O)CCS3(=O)=O)cc1 | . | -24 | 106 | .
CCOc1ccc(NC(=O)c2oc3cc(Br)ccc3c2C)c2cccnc12 | . | -17 | 99 | .
CCc1cccc(OCC(=O)Nc2ccc(S(=O)(=O)Nc3ncccn3)cc2)c1 | 87 | -30 | 103 | 85
CC(Sc1nccn1C)C(=O)Nc1ccccc1C#N (stereo unspecified) | 87 | -31 | 103 | 108
c1cncc(-c2nc(Nc3ccc4c(c3)OCO4)c3ccccc3n2)c1 | 49 | -12 | . | 46
O=C(O)CCC(=O)Nc1ccc(Br)cc1 | 86 | -27 | 103 | 106
CC(C)c1ccc(S(=O)(=O)N2CCOCC2)cc1 | 83 | . | 102 | 96
CCC(=O)N1c2ccc(C)cc2C(OC(=O)c2ccccc2)CC1C (stereo unspecified) | 85 | . | 104 | 92
CCOc1ccc(N=C2CSC(=O)N2)cc1 | 88 | -26 | . | 118
CCOc1cc2c(cc1OCC)C1C(C(=O)N(CC)CC)c3ccccc3C(=O)N1CC2 (stereo unspecified) | 90 | -14 | 102 | 93
Cc1ccccc1CNC(=O)C1CCCN(S(=O)(=O)N(C)C2CCCCC2)C1 (stereo unspecified) | 87 | -28 | 103 | 92
COc1ccc(CN2C(=O)c3cccnc3C2=O)cc1S(=O)(=O)N1CCc2ccccc2C1 | . | -2 | 101 | .
O=C(Nc1ccc(Br)cc1)C1CC(=O)N(c2ccccc2)C(=Nc2ccccc2)S1 (stereo unspecified) | 92 | . | 96 | 88
CN(C)c1ccc(C(CNC(=O)c2ccccc2C(F)(F)F)N2CCOCC2)cc1 (stereo unspecified) | 92 | . | 99 | 76
CCOc1ccccc1NC(=O)NC1(C(=O)NCc2ccco2)CCCCC1 | 86 | -10 | 104 | 107
Cc1ccc(S(=O)(=O)NCC2COc3ccccc3O2)cc1 (stereo unspecified) | 74 | -2 | 102 | 95
COc1ccc(NS(=O)(=O)c2ccc(N3C(=O)CCS3(=O)=O)cc2)cc1OC | . | -14 | 114 | .
COc1cc(Cl)c(NC(=O)C2CCC(=O)N2S(=O)(=O)c2ccccc2)c(OC)c1 (stereo unspecified) | . | -7 | 103 | .
Cc1ccc(N2C(=O)[C@@H]3CSC(c4ccc(C(F)(F)F)cc4)N3C2=O)cc1 (stereo partly specified) | 95 | 16 | 103 | 96
N#Cc1ccc(C(N2CCSCC2)N2CCSCC2)cc1 | 91 | -5 | 106 | 96
O=C(O)CC(CC(=O)Oc1ccccc1N1CCOCC1)c1ccccc1 (stereo unspecified) | 87 | -40 | 101 | 92
O=c1ccccn1CCOc1ccc(Cl)cc1 | 84 | -4 | . | 101
CCN(C(=O)CSc1ncnc2c1sc1ccccc12)c1cccc(C)c1 | 95 | . | 101 | 105
CN(C)S(=O)(=O)c1ccc2c(c1)nnn2CCCC(=O)N1CCN(c2ccccn2)CC1 | . | -10 | 106 | .
O=C(CSc1ncnc2nc(N3CCSCC3)sc12)NC1CCCCC1 | . | -7 | 103 | .
O=S(=O)(/N=C/c1ccccc1O)c1ccc(N=Cc2ccccc2O)cc1 | 110 | -3 | 106 | 97
CCC(=O)N1CCc2cc(Br)cc(S(=O)(=O)NCc3ccc(Cl)cc3)c21 | 87 | -11 | 100 | 102
Cn1c(=O)c(-c2noc(-c3cccs3)n2)cn(-c2ccccc2)c1=O | 88 | -46 | 103 | 92
CCOc1ccccc1C1CC(=O)Nc2c(S(=O)(=O)c3ccccc3)csc21 (stereo unspecified) | . | -6 | 101 | .
O=C(CC12CC3CC(C1)CC(CC(=O)NC1=NCCS1)(C3)C2)NC1=NCCS1 | 95 | -3 | 108 | 105
